Bioassay records from PubChem.
RanGTP-Imp inh = inhibitors of RanGTP-importin-beta interaction, primary screen, biochemical, FRET, CFP-Ran, YFP-importin-beta, homogeneous | cell-free CFP-Ran/YFP-importin-beta FRET ratio | inhibition, % (concentration not given with the values) | 300,000 compounds, 1.1% hits | AID 2216;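 active = most replicates above 15%; inconclusive = exactly half above 15%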;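 also: 0% = DMSO wells and 100% = Ran loaded with GDP instead of GTP; wells of about 40 µL received 100 nL stock; the first replicate is given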
ALR inh = blocks human ALR sulfhydryl oxidase activity | P55789 | purified ALR, DTT oxidation, H2O2 HRP-luminol luminescence | inhibition, % (test concentration not listed) | 290,000 compounds, 3.8% hits;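 active = mean and each replicate at 75% or more; inconclusive = only one of the two met; inactive = neither met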;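 also: stock transfer was 7.5 nL into about 7.5 µL; 0% = neutral wells and 100% = wells with inactivated enzyme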
Target sequence (P55789 whole entry, looked up): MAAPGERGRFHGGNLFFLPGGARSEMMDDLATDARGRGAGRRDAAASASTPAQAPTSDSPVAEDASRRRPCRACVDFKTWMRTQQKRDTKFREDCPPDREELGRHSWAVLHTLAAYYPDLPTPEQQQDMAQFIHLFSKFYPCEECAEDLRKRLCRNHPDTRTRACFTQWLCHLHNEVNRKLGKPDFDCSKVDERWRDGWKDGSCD
Beta cell apopt = blocks beta cell apoptosis. protection from apoptosis, % (no concentration beside the values). 300,000 compounds, 0.8% hits. INS-1E cytokine-induced death, ATP luminescence, 48 h; percent of positive-control rescue, neutral wells zero;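 active = all replicates at 75% or more, or half of them and the mean; inconclusive = half reach 75% but not the mean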;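 also: 0% = cytokine-treated negative control wells and 100% = positive control rescue; higher means more ATP so stronger rescue from cytokine killing; wells of about 40 µL received 100 nL stock; the first replicate is given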
AF4-AF9 inh = blocks AF4 peptide binding to human AF9 | 350,000 compounds, 0.47% hits | P42568 | inhibition, % at 10 µM | AlphaScreen, biotin-AF4 peptide binding to FLAG-AF9;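 active = every replicate reaching a set inhibition limit, whatever the replicate mean, cut at about 25% in these data; inconclusive = mean inhibition reaches that limit but some replicates miss it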;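 also: 0% = plate neutral control median and 100% = total signal loss; the record names both 10 and 1 µM as test concentration; the first replicate is given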
Target sequence (P42568 whole entry, looked up): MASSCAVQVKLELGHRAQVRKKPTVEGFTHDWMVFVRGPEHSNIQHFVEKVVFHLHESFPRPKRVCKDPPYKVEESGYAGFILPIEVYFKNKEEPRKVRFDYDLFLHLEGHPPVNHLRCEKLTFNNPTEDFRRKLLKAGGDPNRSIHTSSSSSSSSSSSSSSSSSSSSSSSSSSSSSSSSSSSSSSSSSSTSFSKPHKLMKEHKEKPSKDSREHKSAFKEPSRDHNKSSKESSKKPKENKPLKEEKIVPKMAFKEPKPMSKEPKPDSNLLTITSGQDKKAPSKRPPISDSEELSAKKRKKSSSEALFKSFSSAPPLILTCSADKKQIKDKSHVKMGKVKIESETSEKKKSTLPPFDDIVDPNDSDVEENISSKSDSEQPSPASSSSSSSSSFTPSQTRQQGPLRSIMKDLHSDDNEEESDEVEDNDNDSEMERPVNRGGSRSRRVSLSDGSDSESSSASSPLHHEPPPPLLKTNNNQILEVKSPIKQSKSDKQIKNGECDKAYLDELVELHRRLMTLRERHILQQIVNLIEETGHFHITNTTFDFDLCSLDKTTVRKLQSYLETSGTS
T cruzi repl = blocks replication of Trypanosoma cruzi; T. cruzi beta-gal in NIH3T3, luminescence, 90 h; inhibition, % (test concentration not listed); 300,000 compounds, 1.4% hits;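 active = mean inhibition across valid replicates above about 55%, limit read from the data; inconclusive = mean below that limit but half or more replicates reach it; inactive = mean below it, under half of replicates reach it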;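 also: signal also drops with host cell toxicity which is not excluded here; 0% = plate median of DMSO wells and 100% = zero luminescence signal; higher percent means less beta-gal luminescence so fewer parasites; stock transfer was 50 nL into about 50 µL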
Calb FLC = C. albicans growth modulation with fluconazole; C. albicans CaCi-2 (fluconazole-resistant clinical isolate) + fluconazole, Alamar Blue growth, 48 h; growth inhibition, % (test concentration not listed); 300,000 compounds, 0.57% hits; AID 1979;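 active = most replicates above 75%; inconclusive = exactly half above 75%; inactive = most below 75%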;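 also: all wells also contain fluconazole at 8 µg/ml as a sub-toxic cotreatment; 0% = median of DMSO wells and 100% = median of geldanamycin control wells; wells of about 8 µL received 7.5 nL stock; the first replicate is given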
Ecoli rRNA inh = selective bacterial rRNA inhibition in E. coli. E. coli WT GFP vs humanized-ribosome RFP mutants, fluorescence, 24 h; active compounds read low; DMSO median 0, no signal -100. GFP signal change (wild-type ribosome), % (test concentration not listed). 350,000 compounds, 1.6% hits. AID 720706;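 active = significant combined selectivity score with lowered wild-type GFP, culture density cut under 30%, mutant RFP and density less affected; inactive = any of these conditions unmet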; also: one replicate is shown; some compounds called inactive have numbers as strong as hits
FGF22 binding = FGF22 (human) thermal shift binding. calls only at 9.99 µM. AID 651658. 340,000 compounds, 1.5% hits. recombinant FGF22 thermal shift, SYPRO orange fluorescence; percent of sucrose octasulfate shift, DMSO zero;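 active = melting point raised past a set limit in the mean and every replicate; inconclusive = no clear call; three in four hits are not shown here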
Target sequence (Q9HCT0 whole entry, looked up): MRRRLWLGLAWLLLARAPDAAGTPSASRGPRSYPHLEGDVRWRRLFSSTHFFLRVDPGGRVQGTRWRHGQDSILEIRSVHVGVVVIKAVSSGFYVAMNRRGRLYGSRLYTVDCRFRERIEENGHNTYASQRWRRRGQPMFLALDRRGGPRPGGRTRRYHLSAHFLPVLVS
Ecoli rRNA inh OD600 = further read-out of Ecoli rRNA inh, marked with its call; OD600 change, %; measured here: OD600 growth;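 optical density of the mix in the first replicate; 0 = DMSO median and -100 = no signal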
Ecoli rRNA inh RFP = second read-out of Ecoli rRNA inh, no call of its own (marks repeat the call); RFP signal change, %; measured here: RFP humanized mutant strains;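 first replicate; 0 = DMSO median and -100 = no signal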
Active calls of the source: *. Some of the compounds tested; count on the stated rates, not on these rows.

How did Cc1ccc(NC(=O)N(Cc2cc3cc(C)cc(C)c3[nH]c2=O)CC2COCCO2)cc1 (centres undefined) do in these assays?
RanGTP-Imp inh: -0.8; ALR inh: -7.3; Beta cell apopt: -0.1; T cruzi repl: 0.7; Calb FLC: 9.1

What do the screens show for `O=C(NCC(c1ccco1)N1CCN(c2ccc(F)cc2)CC1)C(=O)NC1CCCCC1` (centres undefined)?
RanGTP-Imp inh: -1.7; ALR inh: -7.5; AF4-AF9 inh: -38.8; T cruzi repl: -1.6; Calb FLC: -3.0; Ecoli rRNA inh: 5.8; FGF22 binding: inactive; Ecoli rRNA inh OD600: 4.2; Ecoli rRNA inh RFP: 0.2

How did COc1cccc(CN2CCN(Cc3cc(OC)c(OC)c(OC)c3)CC2)c1OC do in these assays?
RanGTP-Imp inh: 1.4; ALR inh: 1.6; AF4-AF9 inh: 2.4; T cruzi repl: -0.8; Calb FLC: -6.5; Ecoli rRNA inh: 7.8; FGF22 binding: inactive; Ecoli rRNA inh OD600: 9.4; Ecoli rRNA inh RFP: -1.1

What do the screens show for `COc1ccccc1N(Cc1ccccc1)S(=O)(=O)c1cc(C(=O)O)ccc1Cl`?
RanGTP-Imp inh: 0.9; ALR inh: 92.1*; Beta cell apopt: -16.4; AF4-AF9 inh: -3.0; T cruzi repl: 12.1; Calb FLC: 2.0; Ecoli rRNA inh: -24.9; FGF22 binding: inactive; Ecoli rRNA inh OD600: -25.1; Ecoli rRNA inh RFP: -2.0

How did COc1cccc(NC(=O)CN2C(=O)NC(C)(C3CC3)C2=O)c1 (centres undefined) do in these assays?
ALR inh: -2.0; Beta cell apopt: -2.4; AF4-AF9 inh: -1.1; FGF22 binding: inactive

How did O=C(OCc1ccc(F)cc1)c1ccc2c(c1)-c1ccccc1C2=O do in these assays?
RanGTP-Imp inh: -2.8; ALR inh: -5.0; Beta cell apopt: 2.7; T cruzi repl: -18.4; Calb FLC: -0.2

How did CC12CCC(C(=O)N(c3cccc(Cl)c3)C1=O)C2(C)C (centres undefined) do in these assays?
RanGTP-Imp inh: -0.8; ALR inh: -12.7; Beta cell apopt: -0.5; AF4-AF9 inh: -10.3; T cruzi repl: -8.3; Calb FLC: -3.9; Ecoli rRNA inh: 13.9; FGF22 binding: inactive; Ecoli rRNA inh OD600: 1.2; Ecoli rRNA inh RFP: 0.8

Results for CCCn1c(N)c(C(=O)NS(=O)(=O)c2ccc(C)cc2)c(=O)n(C)c1=O ?
RanGTP-Imp inh: -0.3; ALR inh: -2.7; Beta cell apopt: 11.5; AF4-AF9 inh: -1.3; T cruzi repl: 3.5; Calb FLC: 11.4; Ecoli rRNA inh: 0.0; FGF22 binding: inactive; Ecoli rRNA inh OD600: 0.2; Ecoli rRNA inh RFP: 1.0

How did CC(C)(C)OC(=O)Cn1c(=O)cnc2ccccc21 do in these assays?
RanGTP-Imp inh: -4.1; Beta cell apopt: -2.0; T cruzi repl: -5.3; Calb FLC: -0.7; Ecoli rRNA inh: 8.6; Ecoli rRNA inh OD600: 9.5; Ecoli rRNA inh RFP: 0.2

Results for O=S(N1CCCCCC1)C12CC3CC(CC(C3)C1)C2 (centres undefined) ?
RanGTP-Imp inh: 2.5; ALR inh: -0.5; Beta cell apopt: -3.0; T cruzi repl: 15.8; Calb FLC: -22.1

Results for CC1(c2ccc3ccccc3c2)NC(=O)N(CC(=O)Nc2ncccc2O)C1=O (centres undefined) ?
ALR inh: -6.5; Beta cell apopt: -2.1; AF4-AF9 inh: -0.7; Ecoli rRNA inh: -2.9; FGF22 binding: active; Ecoli rRNA inh OD600: -5.0; Ecoli rRNA inh RFP: 2.1

What do the screens show for `Cc1ccc(-c2csc(Nc3ccccc3)[n+]2CCc2ccccc2)cc1`?
RanGTP-Imp inh: inconclusive; ALR inh: -3.4; Beta cell apopt: 2.7; AF4-AF9 inh: 7.5; T cruzi repl: 19.7; Calb FLC: -10.7; Ecoli rRNA inh: 17.0; FGF22 binding: inactive; Ecoli rRNA inh OD600: 0.0; Ecoli rRNA inh RFP: 4.7

How did COc1ccc(S(=O)(=O)N2CCCCCC2)cc1NC(=O)Cc1ccccc1F do in these assays?
RanGTP-Imp inh: 0.9; ALR inh: -7.1; Beta cell apopt: -2.8; AF4-AF9 inh: -2.9; T cruzi repl: 9.1; Calb FLC: inconclusive; Ecoli rRNA inh: -13.7; FGF22 binding: inactive; Ecoli rRNA inh OD600: -9.6; Ecoli rRNA inh RFP: 11.2

What do the screens show for `CCC(=O)N1c2ccc(S(=O)(=O)NC3CCCCC3)cc2CC1C` (centres undefined)?
RanGTP-Imp inh: 5.3; ALR inh: -3.0; Beta cell apopt: 3.9; AF4-AF9 inh: -3.1; T cruzi repl: 2.8; Calb FLC: -49.8; Ecoli rRNA inh: 0.6; FGF22 binding: inactive; Ecoli rRNA inh OD600: 2.0; Ecoli rRNA inh RFP: -1.5

How did Cc1cc(C)n(C(=O)c2cccc([N+](=O)[O-])c2C)n1 do in these assays?
RanGTP-Imp inh: -0.7; ALR inh: -7.1; Beta cell apopt: -4.6; AF4-AF9 inh: -0.1; T cruzi repl: -10.7; Calb FLC: 0.7; Ecoli rRNA inh: 3.9; FGF22 binding: inactive; Ecoli rRNA inh OD600: 7.4; Ecoli rRNA inh RFP: -0.7

How did N#Cc1nc(Cc2ccccc2)oc1NCc1cccnc1 do in these assays?
RanGTP-Imp inh: 0.6; ALR inh: 16.7; Beta cell apopt: -1.3; T cruzi repl: 6.2; Calb FLC: -7.7

How did COc1ccc2cc(/C(C)=N/NC(=S)Nc3cc(S(=O)(=O)N4CCOCC4)ccc3N3CCOCC3)ccc2c1 do in these assays?
RanGTP-Imp inh: 0.2; ALR inh: -61.0; Beta cell apopt: 0.1; T cruzi repl: 68.9*; Calb FLC: -9.6

What do the screens show for `COc1ccc(C(c2nnnn2CC2CCCO2)N2CCN(c3ccc(F)cc3)CC2)cc1` (centres undefined)?
RanGTP-Imp inh: 3.7; ALR inh: 7.3; Beta cell apopt: 5.5; T cruzi repl: 3.0; Calb FLC: -13.6

How did C=CCn1c(O)c(N=O)c2cc(C)ccc21 do in these assays?
RanGTP-Imp inh: -3.9; ALR inh: 44.4; Beta cell apopt: -6.3; AF4-AF9 inh: 0.1; T cruzi repl: -5.0; Calb FLC: -2.5; Ecoli rRNA inh: 2.1; FGF22 binding: inactive; Ecoli rRNA inh OD600: 0.3; Ecoli rRNA inh RFP: 4.8

How did C#CCOCCOCCOCCNc1nc(N2CCOCC2)nc(N2CCN(C(=O)[C@H](CC(N)=O)n3cc(C(N)[C@@H](C)CC)nn3)CC2)n1 (some centres undefined) do in these assays?
ALR inh: -3.0; Beta cell apopt: -0.9; AF4-AF9 inh: 0.2; Ecoli rRNA inh: 3.9; FGF22 binding: inactive; Ecoli rRNA inh OD600: 5.2; Ecoli rRNA inh RFP: -5.9

How did Cc1c(NC(=O)C(C)OC(=O)C23CC4CC(CC(Br)(C4)C2)C3)c(=O)n(-c2ccccc2)n1C (centres undefined) do in these assays?
RanGTP-Imp inh: inconclusive; ALR inh: -34.6; Beta cell apopt: 3.2; AF4-AF9 inh: -0.6; T cruzi repl: 9.3; Calb FLC: 0.4; Ecoli rRNA inh: 13.0; FGF22 binding: inactive; Ecoli rRNA inh OD600: 7.3; Ecoli rRNA inh RFP: 2.6

What do the screens show for `COC(=O)CCCC(=O)N1CCCC(C(=O)c2ccc(-c3ccccc3)cc2)C1` (centres undefined)?
RanGTP-Imp inh: -1.4; ALR inh: -8.4; Beta cell apopt: -5.3; AF4-AF9 inh: -8.4; T cruzi repl: -13.9; Calb FLC: 0.3; Ecoli rRNA inh: -36.8; FGF22 binding: inactive; Ecoli rRNA inh OD600: -64.7; Ecoli rRNA inh RFP: -0.6

How did CCCN1C(=O)C2(SC(NC(C)=O)=NN2C(C)=O)c2cc(C)cc(C)c21 (centres undefined) do in these assays?
RanGTP-Imp inh: -7.9; ALR inh: -6.6; Beta cell apopt: -4.3; AF4-AF9 inh: 1.5; T cruzi repl: 0.6; Calb FLC: 15.0; Ecoli rRNA inh: -5.5; FGF22 binding: inactive; Ecoli rRNA inh OD600: -4.1; Ecoli rRNA inh RFP: 1.6

Results for CC1(C)CC(=O)NC=C(c2ccccc2)C1 ?
RanGTP-Imp inh: 25.4*; ALR inh: 0.2; Beta cell apopt: -0.9; T cruzi repl: 4.2; Calb FLC: 22.6

What do the screens show for `O=C(Nc1ccccc1F)c1ccccc1-c1ccccc1`?
RanGTP-Imp inh: 2.4; ALR inh: -0.9; Beta cell apopt: -9.2; AF4-AF9 inh: 3.5; T cruzi repl: 3.5; Calb FLC: -42.1; Ecoli rRNA inh: 0.0; FGF22 binding: inactive; Ecoli rRNA inh OD600: -8.0; Ecoli rRNA inh RFP: -1.2

What do the screens show for `Cc1cc(C(=O)N2CCCC(N3CCN(c4cccc(C(F)(F)F)c4)CC3)C2)nn1C` (centres undefined)?
RanGTP-Imp inh: 0.8; ALR inh: -26.7; Beta cell apopt: -2.5; AF4-AF9 inh: -0.1; T cruzi repl: -12.0; Calb FLC: -11.5; Ecoli rRNA inh: 2.5; FGF22 binding: inactive; Ecoli rRNA inh OD600: 3.3; Ecoli rRNA inh RFP: 2.3

Results for Cc1cc(C(=O)N/N=C/c2ccc(-c3cccc(Cl)c3)o2)n[nH]1 ?
RanGTP-Imp inh: 3.1; ALR inh: -16.3; Beta cell apopt: -1.3; AF4-AF9 inh: -0.3; T cruzi repl: 7.3; Calb FLC: 12.3; Ecoli rRNA inh: -23.1*; FGF22 binding: inactive; Ecoli rRNA inh OD600: 4.6*; Ecoli rRNA inh RFP: 9.7*

What do the screens show for `CCOc1ccc2cc(C#N)c(SCC(=O)OC)nc2c1`?
RanGTP-Imp inh: 2.0; ALR inh: -7.0; Beta cell apopt: -0.8; T cruzi repl: 6.5; Calb FLC: 13.7

What do the screens show for `COc1cccc(OCCNS(=O)(=O)c2ccccc2[N+](=O)[O-])c1`?
ALR inh: -3.7; Beta cell apopt: 0.6; AF4-AF9 inh: 4.1; Ecoli rRNA inh: -21.6*; FGF22 binding: inactive; Ecoli rRNA inh OD600: -9.7*; Ecoli rRNA inh RFP: -0.2*

Results for O=C(NCc1ccco1)c1ccc2c(c1)C(=O)c1ccccc1-2 ?
RanGTP-Imp inh: 0.6; ALR inh: 0.6; Beta cell apopt: -7.8; T cruzi repl: -26.4; Calb FLC: 11.8

What do the screens show for `O=C(CCCOc1ccc(Cl)cc1Cl)N/N=C/c1ccccc1`?
RanGTP-Imp inh: 1.8; ALR inh: -6.8; Beta cell apopt: -1.2; AF4-AF9 inh: -5.8; T cruzi repl: -12.6; Calb FLC: -36.0; Ecoli rRNA inh: -1.4; FGF22 binding: inactive; Ecoli rRNA inh OD600: 18.4; Ecoli rRNA inh RFP: 1.7
